High-throughput results deposited in PubChem by several laboratories.
RN4220 kill – kills Staphylococcus aureus RN4220. S. aureus RN4220 growth, OD600, 16 h. inhibition, % (test concentration not listed). hit rate 0.33% among 330,000;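 active = z-score of -3 or lower and OD600 up to 0.18 on both plates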;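 also: plate controls were untreated cells for no effect and reference antibiotic for full effect; stock transfer was 100 nL into about 80 µL; one replicate is shown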
Bead autofluor – flagged as autofluorescent in microsphere protease counterscreen. compound autofluorescence counterscreen, microsphere flow cytometry; stronger effect = higher value. fluorescence intensity (concentration not given with the values). hit rate 3.1% among 360,000;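 active = at least 3 SD above the mean of all compounds, about 16000 in these data; inconclusive = too few beads counted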;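 also: 100 nL of 1 mM stock went into each well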
Mtb hypoxia inh – reduces hypoxia-regulated biosensor signal in M. tuberculosis. M. tuberculosis hypoxia-regulated fluorescent reporter, fluorescence. fluorescence inhibition, % (no concentration beside the values). hit rate 0.1% among 300,000. AID 1159583;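 active = 35 to 45% if threefold the growth effect, above 45% if 1.5-fold the growth effect; inactive = the rest, general growth blockers included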;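 also: wells of about 50 µL received 100 nL stock; 0% = vehicle wells and 100% = reference inhibitor wells; whole bacteria with a GFP reporter of the hypoxia response; strong numbers were not always called active; many hits fall short of the cut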
ugtP null kill – kills S. aureus RN4220 lacking UgtP | S. aureus RN4220 ugtP deletion, OD600 growth, 16 h; some inactives read as strong as hits | growth inhibition, % (no concentration beside the values) | hit rate 0.54% among 330,000;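 active = z-score under -3 and OD600 up to 0.15 on both plates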;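 also: plate controls were untreated wells for no effect and antibiotic for full effect; wells of about 80 µL received 100 nL stock; the first replicate is given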
PrP 5UTR inh – inhibition of PrP 5' UTR reporter expression; hit rate 0.35% among 340,000; inhibition, % (test concentration not listed); cell-based PrP 5' UTR mRNA reporter, plate reader;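 active = every replicate at 50% or more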;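 also: 0 = median of the neutral control wells; tested in H4 reporter cells; numbers are from one replicate; inactives centre near -14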
BJeLR viability – BJeLR cell viability loss; BJeLR (HRASV12) viability, CellTiter-Glo ATP luminescence, 48 h; reference of the scale not given here; inhibition, % (no concentration beside the values); hit rate 0.17% among 300,000; AID 1554;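 active = replicate mean above 50%; inconclusive = above 50% but judged a plate artefact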;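 also: 50 nL library stock added to about 25 µL; numbers are from one replicate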
Mtb hypoxia inh growth – recorded beside Mtb hypoxia inh, whose call it bears; growth inhibition, %; measured here: M. tuberculosis growth (absorbance);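 0% = vehicle and 100% = reference antibiotic; read after six days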
An asterisk follows results filed as active; u = inconclusive; x = not tested or not shown. Compounds were not picked by outcome (roughly 4% active in at least one column).

SMILES	RN4220 kill	Bead autofluor	Mtb hypoxia inh	Mtb hypoxia inh growth	ugtP null kill	PrP 5UTR inh	BJeLR viability
O=C(Nc1cccc(S(=O)(=O)N2CCOCC2)c1)C1CCCCN1S(=O)(=O)c1ccccc1 (stereo not given)	-3.2	u	-6	-13	-5	-11	x
Cc1ccsc1C=NNc1cn[nH]c(=O)c1Cl	10	x	5	-5	2	x	x
Cc1cc2c(cc1C)N(Cc1ccc(Cl)cc1)C1=NCCCN12	-3.6	3687	x	x	-28	-7	7
O=C1c2ccccc2-c2c1cccc2C(=O)N1CCCCC1	3.4	3117	17	0	-5	-8	1
O=c1[nH]c(SCc2nc3c(cnn3-c3ccccc3)c(=O)[nH]2)nc2ccccc12	-6.6	4043	x	x	-27	8	x
O=C(Nc1cccc2c1CCCC2)c1ccc(F)cc1	2.8	4040	x	x	7	-21	-5
CC(=O)N1CC(C)Sc2ccc(S(=O)(=O)NCCc3cccc(C)c3)cc21 (stereo not given)	4.2	5669	14	4	1	-33	0
Cc1nn(-c2ccccc2)c(C)c1C=NN1CCN(c2ccccc2)CC1	3.6	x	4	9	8	x	x
COc1cc(S(=O)(=O)n2nnc3ccccc32)c(OC)cc1Cl	6.4	4847	x	x	-9	-22	-7
O=C(/C=C/Nc1ccccc1)C(F)(F)F	1.9	3271	1	5	3	-11	5
CC(C)Oc1ccc(CNC(=O)c2ccc3nc(N4CCOCC4)sc3c2)cc1	-0.2	5727	5	6	5	-16	-2
CN(C)CCN(Cc1ccco1)S(=O)(=O)c1csc(C(N)=O)c1	1.9	5389	10	8	0	-3	0
Cc1ccc(NC(=O)Nc2ccc3c(c2)OCO3)c(Br)c1	0.8	5985	-5	3	-2	-44	-2
O=c1c2ccccc2ncn1Cc1ccc(Cl)cc1	-0.5	4603	x	x	-17	-6	-12
Cc1[nH]c2ccccc2c1C(=O)CN1CC(C)OC(C)C1 (stereo not given)	5.0	x	-6	-3	4	x	1
COc1ccc(N2CCN(C(=O)NC3CCCCC3)CC2)cc1	1.6	3365	x	x	7	-20	4
COc1ccc2nc(N/C(=N/S(=O)(=O)c3cccs3)c3ccccc3Cl)sc2c1	1.7	3310	2	0	22	-16	0
COc1cc2c(cc1OC)C(c1cc3cc4c(cc3[nH]c1=O)OCO4)N(C(=O)C1CC1)CC2 (stereo not given)	2.1	12878	17	6	1	-16	2
CCOc1ccc(N(C(=O)c2ccc(S(=O)(=O)N3CCCC3)cc2)C2C=CS(=O)(=O)C2)cc1 (stereo not given)	1.3	6041	3	1	-1	2	4
COc1ccc2nc(-c3ccc(Cl)cc3)cc(C(=O)O)c2c1	6.5	4625	8	-2	-3	-30	1
COc1ccc(OC)c2[nH]c(=O)c(CCNC(=O)c3cccs3)cc12	9.4	2349	-2	-6	-1	-5	3
CCOC(=O)c1ccc(N2C(=O)C3C(/C=C/c4ccccc4)OC4(C(=O)c5ccccc5C4=O)C3C2=O)cc1 (stereo not given)	22	2025	13	3	10	-11	-3
CCOC(=O)c1ccc(NC(=O)CSc2nc3sc(C(=O)O)c(C)c3c(=O)[nH]2)cc1	3.8	2466	-2	-3	9	3	0
CCN(CC)S(=O)(=O)c1ccc(OC)c(NC(=O)CSc2cc(Cl)ccc2Cl)c1	1.1	2433	3	5	-16	3	-5
CC1(CC(=O)N/N=C/c2ccc(OCc3ccc(Cl)cc3Cl)cc2)OCCCO1	x	2745	x	x	x	-5	17
O=c1[nH]c2ccccc2nc1/C=C/c1ccccc1	5.6	4647	14	7	-17	-46	3
COc1ccc(CCNC(=O)C2CC(=O)N(c3ccc(C)cc3)C2)cc1 (stereo not given)	0.0	4487	-3	-11	12	15	-13
CCCN(CCC)Cc1c(C(=O)N/N=C/c2ccncc2)nnn1-c1nonc1N	x	3624	x	x	x	-14	1
CCCn1nc(C(=O)NCCN2CCOCC2)c2ccccc2c1=O	2.3	6290	8	2	16	-2	6
S=C(c1ccc2c(c1)OCO2)N1CCCCCC1	4.9	5548	11	3	4	-10	5
COc1ccc(C(=O)N2CCCCC2)cc1S(=O)(=O)Nc1ccccc1	2.0	6071	2	2	-1	-34	4
COc1ccc(N=Cc2cccc(C)c2O)cc1Cl	0.9	2544	-1	8	4	-15	13
CC(C)=CCCC1=CCC(/C=N/NC(N)=O)C(C)C1 (stereo not given)	x	7688	x	x	x	-34	4
COc1ccc(C(=O)NC(NC(=O)c2ccc(OC)cc2)c2ccccc2F)cc1	1.6	3636	16	-5	2	-9	1
CC(C)CC1=NN2C(=N)/C(=C\c3coc4ccccc4c3=O)C(=O)N=C2S1	10	2604	12	2	-11	-10	-9
CC(C)(C)c1[nH]nc2c1C(Cc1ccccc1)C(C#N)=C(N)O2 (stereo not given)	7.7	5030	x	x	4	-2	8
CC(C)c1cccc(C(C)C)c1NC(=O)Cn1c(=O)cnc2ccccc21	-3.1	2084	-7	-4	2	-14	-4
CC(C)Oc1cccc(C(=O)NC(=S)Nc2cccc(C(F)(F)F)c2)c1	-6.7	2307	x	x	-14	4	-8
O=C(CSc1ncn[nH]1)N1CCOCC1	1.4	2517	15	5	2	-27	0
Cc1cccc(NC(=O)C2CCN(c3ncnc4c3nc3n4CCCCC3)CC2)n1	-2.1	5268	6	16	4	-22	18
Fc1ccccc1-n1cc(-c2ccccc2)[nH]c1=S	x	4218	x	x	x	-34	-7
CCN(CC)C(=O)C(C)N(C#N)c1nc(NC(C)C)nc(NC(C)C)n1 (stereo not given)	3.4	8819	-12	4	-5	-22	-12
Oc1ccc(Cl)cc1C=NN1CCCCCC1	11	3145	9	11	21	-118	x
CCOc1ccc(S(=O)(=O)NCc2ccc3c(c2)OCO3)cc1NC(C)=O	3.6	3163	20	10	8	-18	-7
COc1cccc(CN(C(=O)c2ccco2)C(C(=O)NC2CCCC2)c2cccnc2)c1 (stereo not given)	-13	2936	18	6	-6	-18	1

Some entries already given, reduced to PrP 5UTR inh.
| mol | PrP 5UTR inh |
| --- | --- |
| CC(C)CC1=NN2C(=N)/C(=C\c3coc4ccccc4c3=O)C(=O)N=C2S1 | -10 |
| CC(C)(C)c1[nH]nc2c1C(Cc1ccccc1)C(C#N)=C(N)O2 (stereo not given) | -2 |
| CC(C)c1cccc(C(C)C)c1NC(=O)Cn1c(=O)cnc2ccccc21 | -14 |

Next section
SMILES	RN4220 kill	Bead autofluor	Mtb hypoxia inh	Mtb hypoxia inh growth	ugtP null kill	PrP 5UTR inh	BJeLR viability
Cc1ccc(S(=O)(=O)N2CCC(=O)N(CCOCc3cccc(F)c3)CC2)cc1	5.0	3422	3	5	4	-20	3
COc1ccc(C(=O)NNC(=S)NC(=O)c2ccc(F)cc2)cc1Br	81	5507	-1	-5	85*	x	0
NC(=O)C1CCN(C(=O)c2ccc3c(c2)S(=O)(=O)c2ccccc2C3=O)CC1	0.1	3564	-10	7	0	0	1
Cc1nn(C(=O)c2ccco2)c(C)c1Br	-6.6	2882	4	6	-7	-32	0
CCC[C@H]1COCCS(=O)(=O)N1Cc1ccccc1	x	2972	x	x	x	-2	0
O=C(NN=Cc1ccncc1)c1ccncc1	-0.3	x	24	12	4	x	x
CCc1ccc(NC(=O)c2ccccc2SC)cc1	17	4713	6	8	7	-31	-13
CCCC(=O)Nc1nn(C)c2nc3cc(C)ccc3cc12	-2.9	x	x	x	6	x	-2
O=c1c(N2CCOCC2)nsnc1N1CCOCC1	1.8	2406	x	x	-7	-16	-2
CC(=O)NCCC(=O)N(C)CC1CCN(CCc2cccc(C(F)(F)F)c2)CC1	x	4130	x	x	x	-36	1
Cc1ccc(C)c(NC(=O)CN(C)C(C)C(=O)N2CCCC2)c1 (stereo not given)	3.6	2936	13	3	9	-5	x
O=C(COC(=O)c1ccc[nH]c1=O)NCCC1=CCCCC1	5.4	3709	4	6	3	3	x
COC(=O)c1c(NC(=O)COC(=O)CNC(=O)c2ccco2)sc(C)c1C	3.3	2497	9	4	7	-13	-3
N/C(=N\O)c1cn(Cc2ccccc2Cl)c2ccccc12	x	3668	x	x	x	-7	-11
Cc1ccc(NS(=O)(=O)c2c(C)[nH]c(C)c2C(=O)N2CCCCC2)c(Cl)c1	1.4	5170	9	1	-1	-10	13

As entered above.
Reading of COc1ccc2nc(N/C(=N/S(=O)(=O)c3cccs3)c3ccccc3Cl)sc2c1 in BJeLR viability: 0
Reading of NC(=O)C1CCN(C(=O)c2ccc3c(c2)S(=O)(=O)c2ccccc2C3=O)CC1 in PrP 5UTR inh: 0

(more compounds)
SMILES	RN4220 kill	Bead autofluor	Mtb hypoxia inh	Mtb hypoxia inh growth	ugtP null kill	PrP 5UTR inh	BJeLR viability
CCCCNc1nnc(SCC(=O)c2c(N)n(C3CC3)c(=O)[nH]c2=O)s1	2.7	4237	1	9	4	-11	x
CCOC(=O)C1=C(COC(=O)C2CC(=O)N(c3ccc(C)cc3)C2)NC(=O)NC1C (stereo not given)	6.8	x	1	5	3	-23	-7
Cc1ccc(S(=O)(=O)NC2=NCN(CCN3CCOCC3)CN2)cc1	0.7	8332	6	7	6	-31	-10
C=CCc1cc(C)ccc1OCCCC(C(=O)OCC)C(=O)OCC	-0.2	2046	-1	14	63	-1	-6
CCn1c(-c2cc(OC)c(OC)c(OC)c2)n[nH]c1=S	1.2	3028	5	3	1	-14	-12
O=C(O)CSc1nnc(COc2cccc3cccnc23)n1-c1cccc(C(F)(F)F)c1	5.5	x	16	10	5	x	-3
CCCC1C2CN(C(C)C)CC=C2C(C#N)=C(N)C1(C#N)C#N (stereo not given)	0.0	3198	8	7	8	12	1
CC1S/C(=N/N=C/c2ccco2)NC1=O (stereo not given)	x	2210	x	x	x	-6	5
CCOc1cccc(/C=N/NC(=O)c2cc(C3CC3)[nH]n2)c1O	x	5482	x	x	x	9	2
O=S(=O)(NC1=NCCCCC1)c1ccc2ccccc2c1	4.4	2225	8	7	1	-31	7
COc1ccc(CNC(=O)CN(C(=O)CCC(=O)Nc2ccccn2)c2cccc(C)c2)cc1	3.8	4627	8	4	1	-18	-7
Cc1cccc(-n2c(C)cc(C=NNC(=O)c3cccc([N+](=O)[O-])c3C)c2C)c1	6.5	x	0	9	2	x	x
COc1ccc(N(C(=O)c2ccco2)C(C(=O)NC2CCCC2)c2ccc(N(C)C)cc2)cc1OC (stereo not given)	-17	3120	x	x	-1	-7	3
CSc1ccc(CNc2ccc(C)c(C)c2)cc1	-1.0	11060	8	13	26	-64	-8
CN=c1scc(-c2ccc(Br)cc2)n1C	-0.5	5041	x	x	-5	-14	-8
Cc1ccc(C)c(N(C(=O)c2csnn2)C(C(=O)NC2CCCC2)c2cccnc2)c1 (stereo not given)	-0.9	3376	-7	10	-3	1	0
CC(C)c1cc(=O)n2c(nc3ccccc32)[nH]1	4.2	x	3	-2	9	-7	8
Cc1ccc(C(=O)Nc2ccn(C)n2)cc1	1.0	3985	1	4	-2	-43	x
NC(=O)C1c2ccccc2CSc2ccccc21 (stereo not given)	2.3	2678	x	x	5	-21	7
CC(Sc1nnc(C(F)(F)F)n1C)C(=O)Nc1ccc(S(N)(=O)=O)cc1 (stereo not given)	8.7	6013	9	6	5	-8	10
Cc1ccc(NC(=O)N2CCc3ccccc32)cc1C	-1.9	3009	6	10	1	-66	x

Full records from above. Values in the order: RN4220 kill	Bead autofluor	Mtb hypoxia inh	Mtb hypoxia inh growth	ugtP null kill	PrP 5UTR inh	BJeLR viability
Results for Cc1ccc(NC(=O)N2CCc3ccccc32)cc1C → -1.9	3009	6	10	1	-66	x
Results for Cc1ccc(C(=O)Nc2ccn(C)n2)cc1 → 1.0	3985	1	4	-2	-43	x
Results for Cc1ccc(C)c(N(C(=O)c2csnn2)C(C(=O)NC2CCCC2)c2cccnc2)c1 (stereo not given) → -0.9	3376	-7	10	-3	1	0
Results for CC(Sc1nnc(C(F)(F)F)n1C)C(=O)Nc1ccc(S(N)(=O)=O)cc1 (stereo not given) → 8.7	6013	9	6	5	-8	10
